D2 PAM: Beta-Arrestin HTS for Positive Allosteric Modulators of the Human D2 Dopamine Receptor: Potentiators; D(2) dopamine receptor (Homo sapiens), P14416; DiscoveRx D2 beta-arrestin cells, luminescence, 90 min; 100% = 57 uM dopamine signal; potentiation, % (concentration not given with the values); 360,000 compounds, 0.23% hits; AID 624464, 2012; active = potentiation of 50% or more; inconclusive = 30% to 50%; inactive = 30% or less;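 note: tested on top of an EC20 dose of dopamine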
Target sequence (P14416 whole entry, looked up): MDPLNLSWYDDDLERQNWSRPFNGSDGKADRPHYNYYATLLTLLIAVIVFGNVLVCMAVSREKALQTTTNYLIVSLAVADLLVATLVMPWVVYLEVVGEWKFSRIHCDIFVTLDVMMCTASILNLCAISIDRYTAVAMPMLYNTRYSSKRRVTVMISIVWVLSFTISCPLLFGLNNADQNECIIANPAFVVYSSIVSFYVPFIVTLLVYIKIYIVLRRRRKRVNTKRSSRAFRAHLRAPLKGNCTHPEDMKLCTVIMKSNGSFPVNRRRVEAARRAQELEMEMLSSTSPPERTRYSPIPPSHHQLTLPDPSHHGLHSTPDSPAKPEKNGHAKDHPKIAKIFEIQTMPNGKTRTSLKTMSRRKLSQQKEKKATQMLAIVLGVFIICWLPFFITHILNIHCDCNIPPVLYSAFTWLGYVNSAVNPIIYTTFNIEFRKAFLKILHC
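D2 cells co-treated with compound plus 50 nM dopamine (EC20) for 90 min at 37 deg C to detect potentiation. Beta-arrestin recruitment was read as enzyme-fragment luminescence after 1 h at ambient temperature. Full response was set by 57 uM dopamine.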
Six1-Eya2 inh: qHTS Assay for Inhibitors of the Six1/Eya2 Interaction. AID 651725, 2012. AlphaScreen GST-Six1/His-Eya2 binding, biochemical; stronger effect = lower value; control for the full effect not named in the record. 360,000 compounds, 0.56% hits. activity change, % (concentration not given with the values). Homeobox protein SIX1 (Homo sapiens) + Protein phosphatase EYA2 (Homo sapiens), …; in the data active = activity change below about -65%; inconclusive = about -30% to -65%; inactive = above about -30%; note: % is set by controls: 0 for no effect and ±100 for the full control effect
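Six1/Eya2 binding was read as AlphaScreen signal after compounds were pinned into GST-Six1 plus His-tagged Eya2 (5X stock 250/500 nM) in pH 8.0 Tris/NaCl/TCEP buffer, beads added, then incubated 1 h, 37 C, dark.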
TRPML1 blocker: qHTS for Inhibitors of the Human Mucolipin Transient Receptor Potential 1 (TRPML1). 390,000 compounds, 0.02% hits. Mucolipin-1 (Homo sapiens), Q9GZU1. activity change, negative = inhibition, % (test concentration not listed). TRPML1-inducible cells, Ca2+ dye fluorescence, FDSS; stronger effect = lower value; inhibition of EC80 agonist-evoked calcium signal; in the data active means activity change below about -50%; inconclusive means about -30% to -50%; inactive means above about -30%;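 note: stimulus is agonist 54-4 at its EC80 concentration; % is set by controls: 0 for no effect and ±100 for the full control effect; compound concentration not given in the record; the text of the record puts the active cut at -80%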
Target sequence (Q9GZU1 whole entry, looked up): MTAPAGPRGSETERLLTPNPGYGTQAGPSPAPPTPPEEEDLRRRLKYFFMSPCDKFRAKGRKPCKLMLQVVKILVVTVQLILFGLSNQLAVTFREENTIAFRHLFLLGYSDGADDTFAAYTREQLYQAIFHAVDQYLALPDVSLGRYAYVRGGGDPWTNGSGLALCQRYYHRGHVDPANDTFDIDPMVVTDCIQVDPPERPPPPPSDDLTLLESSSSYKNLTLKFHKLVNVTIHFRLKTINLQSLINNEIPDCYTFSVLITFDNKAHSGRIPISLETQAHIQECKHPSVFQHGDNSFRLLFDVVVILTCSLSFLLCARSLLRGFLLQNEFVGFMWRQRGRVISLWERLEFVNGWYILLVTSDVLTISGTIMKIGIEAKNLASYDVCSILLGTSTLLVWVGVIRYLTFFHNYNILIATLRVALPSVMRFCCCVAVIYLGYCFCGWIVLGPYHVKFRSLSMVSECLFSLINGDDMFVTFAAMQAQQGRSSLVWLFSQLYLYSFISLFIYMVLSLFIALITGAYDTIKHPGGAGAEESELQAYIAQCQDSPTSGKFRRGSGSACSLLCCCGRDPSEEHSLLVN
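Tet-induced TRPML1-DL cells loaded with Ca8 no-wash calcium dye were read kinetically on FDSS. Compound addition was followed by EC80 agonist 54-4 (4 uM final); inhibition was read over 110 s.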
TRPML1 ag: qHTS for Agonists of the Human Mucolipin Transient Receptor Potential 1 (TRPML1); activation, % (no concentration beside the values); 410,000 compounds, 0.12% hits; Mucolipin-1 (Homo sapiens), Q9GZU1; TRPML1-expressing cells, Ca2+ dye fluorescence, FDSS; host cell line not named in the record; reference of the full effect not given here; in the data active = activation above about 50%; inconclusive = about 30% to 50%; inactive = below about 30%; note: 0% is about no effect; the text of the record puts the active cut at 80%
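In this qHTS format, compounds were pin-transferred onto Ca8-dye-loaded TRPML1-DL cells induced with Tet overnight, and intracellular Ca2+ fluorescence was recorded kinetically for 110 s after a 10 s baseline. A subsequent 4uM final 54-4 (EC80) addition followed by a second 110 s read served as the antagonist phase.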
D2 ag: Beta-Arrestin HTS for Positive Allosteric Modulators of the Human D2 Dopamine Receptor: Agonists; activation, % (test concentration not listed); DiscoveRx PathHunter D2 beta-arrestin, luminescence, 90 min; 100% = 57 uM dopamine signal; 360,000 compounds, 0.084% hits; AID 624465, 2012; D(2) dopamine receptor (Homo sapiens), P14416; in the data active = activation above about 40%; inconclusive = about 15% to 40%; inactive = below about 15%; note: compound concentration not given in the record; the text of the record calls up to 30% inactive
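Agonist mode: compounds alone added to overnight-plated D2 PathHunter cells for 90 min at 37 C, with 57 uM final dopamine (EC100) defining full response. Beta-arrestin recruitment detected by chemiluminescent reagent, read after 1 h at ambient temperature.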
PINK1 expr mod: A Quantitative High throughput Screen to Identify Chemical Modulators of PINK1 Expression. PINK1 immunofluorescence, high-content cytometry, 24 h. Potency, µM (titrated, usually from 76.6 µM), for the others: top-dose activation (PINK1 increase), actives largely listed as activators. 410,000 compounds, 0.2% hits. AID 624263, 2012; active = well fitted activation curve with a large enough effect; inconclusive = small, poorly fitted or top-dose-only effect; inactive = flat fitted curve, though single readings scatter; cell line not stated here;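 note: potency is the fitted concentration of half-maximal effect; % of control where 0% means no effect; nearly all actives have a fitted effect of over 65% in size; a mitochondrial uncoupler was the plate control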
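Stable cell line treated 24 h with compounds at 5 concentrations (CCCP controls), then fixed and immunostained for PINK1 plus nuclear and cell stains; PINK1 immunofluorescence quantified by laser-scanning microplate cytometry.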
Numbers without * were called inactive; ? = inconclusive; . = no result given; [ ] = remark or other dose.

SMILES | D2 PAM | Six1-Eya2 inh | TRPML1 blocker | TRPML1 ag | D2 ag | PINK1 expr mod
CCN(CC)CCn1c(SCC(=O)Nc2cccc(OC)c2)nc2c(sc3ccccc32)c1=O | -4 | -4 | -1 | 2.1 | -0.6 | 0.7%
O=C(O)Cn1c2ccccc2c2n[nH]c(=S)nc21 | -9 | 0 | -12 | 0.6 | 9.5 | 0.2%
CN(C)C(=O)CSc1n[nH]c(-c2ccco2)n1 | -16 | 12 | 15 | 1.6 | -4.2 | 0.6%
S=C1SCN(Cc2ccccn2)CN1Cc1ccco1 | -4 | -80* | -6 | -0.6 | 1.7 | 3.6%[38.3 µM]
Cc1ccc(NC2CCCN(C(=O)CSc3ccccn3)C2)cc1C (stereo not given) | 0 | -12 | 24 | 1.4 | -5.5 | -0.1%
NC(=O)N/N=C/c1ccc(-c2ccc(S(=O)(=O)Nc3ncccn3)cc2)o1 | -7 | -14 | -15 | 0.0 | -2.2 | 0.1%
CCN1C(=O)[C@H]2[C@@H](c3ccc(-c4ccc(Cl)c(Cl)c4)cc3)N[C@@](C)(C(=O)OC)[C@H]2C1=O | -34 | -3 | -10 | -0.1 | 0.2 | 0.9%
CC1CCCN(c2ccc(C(=O)NCc3ccccc3)cn2)C1 (stereo not given) | -2 | 13 | -18 | 0.5 | -2.6 | -2.2%
CCOC(=O)c1cc(CC)sc1NC(=O)CN1CCN(C(=O)C2CCCO2)CC1 (stereo not given) | -4 | 20 | 9 | -0.1 | -0.4 | 2.2%
O=C1CCC(=O)N1CC1CC2CCC1C2 (stereo not given) | -5 | -4 | -10 | 0.6 | -2.3 | 1.5%
O=C(N/N=C/c1ccc(O)c(O)c1)c1ccc(CSc2cccc3cccnc23)cc1 | ? | -24 | 7 | 0.6 | 5.2 | 4.7%
CC(=O)c1cccc(NCC(=O)c2ccc(C)c([N+](=O)[O-])c2)c1 | 0 | 16 | -9 | -1.1 | -1.6 | -1.6%
Cc1ccc(CNC(=O)c2ccc(CS(=O)(=O)Cc3ccc(F)cc3)o2)cc1 | . | . | 13 | 0.7 | . | 19%
CCOCCCNC(=O)CN(Cc1ccc(Cl)cc1)S(C)(=O)=O | -1 | 14 | 10 | -0.4 | 0.5 | -0.2%
CC(C)OC(=O)C(NC(=O)c1ccccc1)=C1CCCCC1 | -8 | 7 | 1 | -0.9 | 0.3 | -1.4%
Cc1cccc(N2CCN(C(=O)c3ccccc3NC(=O)C3CCCCC3C(=O)O)CC2)c1 (stereo not given) | -13 | 7 | -2 | -0.4 | 0.3 | 0.4%
OCCCc1ccc(O)c(O)c1 | -21 | -4 | . | . | -1.2 | 3.1%
COc1ccc(NC(=O)Cc2noc3ccc(C)cc23)cc1Cl | . | . | -2 | 0.7 | . | 1.7%
COc1ccccc1OCCNC1CCCC1 | -3 | -1 | 12 | -0.9 | -4.3 | -1.1%
CC(C)c1nc2ccc(C(=O)NCc3ccccc3Br)cc2o1 | . | . | 2 | 1.5 | . | 1.7%
CCOC(=O)c1cnn(-c2ccc(C(=O)Nc3cccc(C(C)=O)c3)cc2)c1N | . | . | -8 | -0.3 | . | 2.3%
O=C(c1ccco1)N1CCN(S(=O)(=O)c2ccc(F)cc2)CC1 | -8 | 1 | 2 | -0.3 | -2.2 | -6.8%
Cc1cc2ccccc2c(=O)n1CC(=O)N(C)c1ccc(F)cc1 | 12 | 4 | 3 | -0.9 | -7.9 | 0.4%
COc1cc(OC)c(NC(=O)CCNC(=O)Cn2ccc3ccccc3c2=O)cc1Cl | -4 | 3 | 7 | 0.1 | -2.9 | 1.2%
CCc1ccc2nc(-c3cccc(C)c3)nc(SCC(=O)NCC3CCCO3)c2c1 (stereo not given) | -7 | 1 | -4 | 0.6 | -3.1 | 10%[38.3 µM]

New compounds follow
SMILES | D2 PAM | Six1-Eya2 inh | TRPML1 blocker | TRPML1 ag | D2 ag | PINK1 expr mod
COCCNC(=O)C(c1ccc(C)o1)N(C(=O)c1snc(C(N)=O)c1N)c1ccc(C)cc1 (stereo not given) | 4 | -3 | 10 | 0.3 | 0.5 | 0.5%[38.3 µM]
COc1ccc(S(=O)(=O)Nc2cc(Sc3ncn[nH]3)c(O)c3ccccc23)cc1 | -19 | -13 | -5 | 0.4 | . | 2.5%
C[C@H](O)C#Cc1cnc2c(c1)C(=O)N([C@H](C)CO)C[C@@H](C)[C@@H](CN(C)Cc1ccc(-c3ccccc3)cc1)O2 | -14 | 0 | 2 | -0.3 | -0.5 | -2.2%
COc1ccccc1CNC(=O)C1CCN(S(=O)(=O)c2ccc3c(c2)OCCCO3)CC1 | -16 | -1 | -20 | 1.4 | 3.5 | 1.6%
Cn1nc(C(C)(C)C)cc1C(=O)N1CCCCC1c1cc(C(=O)Nc2ccccc2Cl)no1 (stereo not given) | -3 | 1 | . | 0.3 | 0.4 | 2.3%
CCCOc1ccc(C(=O)Nc2cc(-c3nn4c(C)nnc4s3)ccc2C)cc1 | -3 | 3 | 21 | 1.2 | -2.6 | 3.6%
CC1(c2ccccc2)NC(=O)N(CC(=O)Nc2cccc(C#N)c2)C1=O (stereo not given) | -7 | 3 | 7 | 0.3 | -1.4 | 0.4%
Cc1ccnc(OC(C(=O)O)C(OCc2ccccc2)(c2ccc(F)cc2)c2ccc(F)cc2)n1 (stereo not given) | -9 | 1 | 22 | 0.7 | -2.8 | -1.1%
O=C(c1ccco1)N1CCC(c2ccccc2)C1 (stereo not given) | 2 | 3 | 11 | -0.4 | 0.7 | .
S=C(Nc1ccc(Br)cc1)NC1CCCC1 | -20 | 2 | -17 | 0.6 | 2.2 | 24%
COc1cc(SC)ccc1C(=O)OC(C)C(=O)Nc1ccc(NC(C)=O)cc1 (stereo not given) | -8 | -4 | 9 | 0.0 | 0.7 | 2.7%
COc1ccc(N(C(=O)COc2ccccc2)C2C=CS(=O)(=O)C2)c(OC)c1 (stereo not given) | -6 | 4 | 4 | 0.6 | -1.8 | -4.5%[38.3 µM]
Oc1ccc(/C=C/c2nc(-c3ccccc3O)n(-c3ccccc3)n2)c(O)c1 | . | . | 2 | -0.3 | . | 1.4%
CC1CC(C)CN(C(=O)COC(=O)c2ccc3ncsc3c2)C1 (stereo not given) | 10 | -1 | 7 | -1.0 | 0.2 | -0.3%
O=C(NN=Cc1c(F)cccc1F)c1ccccc1NS(=O)(=O)c1cccs1 | 9 | -6 | 5 | -0.2 | 0.2 | 1.4%
CCc1cccc(NC(=O)CCn2nc(C)cc2C)c1 | . | . | -11 | 1.6 | . | -1.2%
COc1ccc(C(=O)NCC(=O)OCC(=O)N2CCC(C)CC2)cc1OC | -7 | 0 | -9 | -1.2 | -3.6 | 1.3%
COc1ccccc1CNC(=O)C1CCN(S(=O)(=O)c2ccc3c(ccn3C)c2)CC1 | . | . | 4 | 2.3 | . | 0.6%
COc1ccc(CSc2nc3ccncc3n2CC(=O)Nc2cc(C)cc(C)c2)cc1 | . | . | -12 | 1.0 | . | 4.0%
O=C(Nc1nnc(SCC(=O)N2CCCC2)s1)C1CC(=O)N(c2ccccc2)C1 (stereo not given) | -2 | 2 | 5 | 0.1 | -1.2 | 0.3%
CCOc1ccc(C(=O)OCC(=O)NC2CCCCCCC2)cc1 | -3 | 23 | -7 | 2.2 | -1.2 | 4.1%
OCC[C@@H]1C[C@@H](O)[C@H](O)[C@@]2(Cc3ccccc3CO2)O1 | -7 | 4 | -7 | 0.0 | -1.3 | 0.4%
COCCN(CC(=O)Nc1cc(Cl)ccc1-n1cncn1)Cc1nc2ccccc2c(=O)[nH]1 | -2 | 0 | 1 | -0.4 | -2.2 | -1.4%
O=C(Nc1ccccc1N1CCN(C(=O)c2ccccc2)CC1)c1ccc(Br)o1 | 9 | 17 | 76 | 2.6 | 13 | -0.3%
CC(NS(=O)(=O)c1cccc(C(=O)N(C)Cc2ccc(N3CCOCC3)cc2)c1)c1ccccc1 (stereo not given) | -3 | -7 | 7 | -0.4 | -0.1 | 0.7%

Going on with the list.
SMILES | D2 PAM | Six1-Eya2 inh | TRPML1 blocker | TRPML1 ag | D2 ag | PINK1 expr mod
CN=C(Nc1ccc(C(=O)OC)s1)c1ccccc1 | -10 | -8 | -10 | 1.4 | -1.0 | -0.8%
COc1cc(C2CC(=O)N3CN(Cc4ccccc4)CSC3=C2C#N)ccc1OCc1ccccc1 (stereo not given) | -8 | 0 | 20 | 0.6 | -6.3 | 0.4%
CC(C)CCNC(=O)c1ccc(-n2cnc3cccnc32)cc1 | -2 | 1 | -7 | 0.5 | 0.4 | 2.0%
O=C(COC(=O)c1ccccc1Oc1ccccc1)NC1CC1 | -7 | 1 | -3 | -0.5 | 0.7 | -0.8%
Cc1cccc(CSc2nnc(CCCCCN)o2)c1 | . | . | 10 | 1.9 | . | -2.0%
Cc1ccccc1NC(=O)CN1C(=O)S/C(=C\c2ccc(-c3cc(C(=O)O)ccc3C)o2)C1=O | 5 | -5 | 8 | 0.1 | -3.5 | 13%
O=c1[nH]c(=O)c2nc(-c3ccc(Cl)cc3)cnc2[nH]1 | -6 | -11 | -6 | 0.1 | -2.7 | -1.8%
CCOC(=O)c1ccc(NC(=O)C2CC3CCC2C3)cc1 (stereo not given) | -11 | -3 | -5 | 0.0 | 1.8 | 6.4%
CC1CCCCC1NC(=O)COC(=O)CCC(=O)c1cccs1 (stereo not given) | -4 | 4 | 7 | -0.3 | -0.6 | -0.3%
COC(=O)c1cccc(NC(=O)CC2C(=O)NCCN2C(=O)c2ccc(F)cc2F)c1 (stereo not given) | -5 | 2 | -8 | -1.1 | -3.9 | 1.6%
FC(F)(F)c1ccc(Oc2ccc3ccccc3c2Br)nc1 | 2 | 36 | 1 | -0.5 | -3.6 | ?

6 successive records out of the list so far, for reference:
SMILES | D2 PAM | Six1-Eya2 inh | TRPML1 blocker | TRPML1 ag | D2 ag | PINK1 expr mod
CN=C(Nc1ccc(C(=O)OC)s1)c1ccccc1 | -10 | -8 | -10 | 1.4 | -1.0 | -0.8%
COc1cc(C2CC(=O)N3CN(Cc4ccccc4)CSC3=C2C#N)ccc1OCc1ccccc1 (stereo not given) | -8 | 0 | 20 | 0.6 | -6.3 | 0.4%
CC(C)CCNC(=O)c1ccc(-n2cnc3cccnc32)cc1 | -2 | 1 | -7 | 0.5 | 0.4 | 2.0%
O=C(COC(=O)c1ccccc1Oc1ccccc1)NC1CC1 | -7 | 1 | -3 | -0.5 | 0.7 | -0.8%
Cc1cccc(CSc2nnc(CCCCCN)o2)c1 | . | . | 10 | 1.9 | . | -2.0%
Cc1ccccc1NC(=O)CN1C(=O)S/C(=C\c2ccc(-c3cc(C(=O)O)ccc3C)o2)C1=O | 5 | -5 | 8 | 0.1 | -3.5 | 13%

No enrichment for hits; any-hit rate near 1%.
